FPR binding: small-molecule ligands of human FPR – U937-FPR cells, fMLFK-FITC, flow cytometry, primary screen (AID 362); 4,300 tested, 1% active; inhibition, %; U937-FPR cells, fMLFK-FITC displacement, flow cytometry; active compounds read high; test concentration not given here; most inactive calls were filed without a number and no value below 0 was filed;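 active = inhibition of labelled peptide binding to the formyl peptide receptor of at least 65%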;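 note: plate controls were buffer control wells for no effect and unlabeled fMLFF blocking peptide for full effect; higher means less cell fluorescence so more probe displaced; part of the set was picked by virtual screening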
An asterisk follows results filed as active; i = inactive. An excerpt, so the mix of outcomes need not match the whole.

FPR binding,structure
i,CC1=C(C(=O)OC2CCCCC2)C(c2ccc(OC(F)F)cc2)n2nnnc2N1 (stereo not given)
i,COc1cc(NC(=O)C(NS(=O)(=O)c2ccc3c(c2)CCCN3C(C)=O)C(C)C)cc(OC)c1 (stereo not given)
11,O=C(O)CCC(CNS(=O)(=O)c1ccc([N+](=O)[O-])cc1)C(F)(F)F (stereo not given)
3,COc1cc(C2NC(=O)NC(C)=C2C(=O)OC2CCCC2)cc([N+](=O)[O-])c1O (stereo not given)
4,O=C(C1CCCN(S(=O)(=O)c2ccc(F)cc2)C1)N1CCCCC1 (stereo not given)
18,COC(=O)C1C(=O)C2=C(CC1C)NC(C)=C(C(=O)OCCOc1ccccc1)C2c1cccc(O)c1 (stereo not given)
37,COC(=O)C1C(=O)C2=C(CC1C)NC(C)=C(C(=O)OCCOC(C)C)C2c1ccc(C)o1 (stereo not given)
9,COc1ccc(C2=NN3C(C2)c2ccccc2OC32CCCCC2)cc1OC (stereo not given)
i,COc1ccc(Cl)cc1NC(=O)C(CC(C)C)NS(=O)(=O)c1ccc2c(c1)CCN2C(C)=O (stereo not given)
i,CCCCC(C(=O)Nc1ccccc1)N1C(=O)c2cccc([N+](=O)[O-])c2C1=O (stereo not given)
i,C=C(C)Cn1c(SCC(=O)c2ccccc2)nc2sc3c(c2c1=O)CCCC3
24,CC(C)CN1C(=O)C2C3CC4C5(C)CCCC(C)(C(=O)O)C5CCC4(C=C3C(C)C)C2C1=O (stereo not given)
0,COc1cc(C2C(C(=O)OCC(C)C)=C(C)NC3=C2C(=O)CC(c2ccc(Cl)cc2)C3)ccc1OC(C)=O (stereo not given)
34,CN(C)CCNc1c2c(c(C#N)c3nc4ccccc4n13)CCCC2
i,C=CCN(CC=C)S(=O)(=O)c1ccc(C(=O)N2CC(C)CC(C)C2)cc1 (stereo not given)
3,COC(=O)C1C(=O)C2=C(CC1C)NC(C)=C(C(=O)OC1CCCCC1)C2c1ccc(O)c(OC)c1 (stereo not given)
41,COc1cc(C2C(C(=O)OC3CCCCC3)=C(C)NC3=C2C(=O)CC(c2ccccc2)C3)cc(Br)c1O (stereo not given)
i,CC(=O)N1CCCc2cc(S(=O)(=O)NC(C(=O)Nc3ccc(F)cc3F)C(C)C)ccc21 (stereo not given)
i,CCOC(=O)C1=C(C)NC2=C(C(=O)C(C(=O)OC)C(C)C2)C1c1ccc(Br)cc1 (stereo not given)
2,N=C1C(C(=O)c2ccccc2)SC(=O)C2C(=O)NC(=O)C1C21CCCCC1 (stereo not given)

Shown as labelled records: 4 of the compounds above.
C=C(C)Cn1c(SCC(=O)c2ccccc2)nc2sc3c(c2c1=O)CCCC3
  FPR binding: i

CC(C)CN1C(=O)C2C3CC4C5(C)CCCC(C)(C(=O)O)C5CCC4(C=C3C(C)C)C2C1=O (stereo not given)
  FPR binding: 24

COc1cc(C2C(C(=O)OCC(C)C)=C(C)NC3=C2C(=O)CC(c2ccc(Cl)cc2)C3)ccc1OC(C)=O (stereo not given)
  FPR binding: 0

CN(C)CCNc1c2c(c(C#N)c3nc4ccccc4n13)CCCC2
  FPR binding: 34

The results go on:
FPR binding,structure
7,COc1ccc2c(c1)C(C)=CC(C)(C)N2C(=O)CSc1ccccn1
i,CC(C)CCn1c(CN2CCN(c3ccccc3)CC2)nc2c1c(=O)n(C)c(=O)n2C
2,COC(=O)C1C(=O)C2=C(CC1C)NC(C)=C(C(=O)OC(C)C)C2c1ccc(C(F)(F)F)cc1 (stereo not given)
i,O=C1CC(C(=O)NC2CCCCC2)(c2cccc(Br)c2)N1CC1COc2ccccc2O1 (stereo not given)
i,COc1ccc2c(c1)C(C)=CC(C)(C)N2C(=O)Nc1ccc(C)cc1
i,CC(C)Cn1c(=O)c2cc3c(=O)n(CC(C)C)c(=O)c3c(C(=O)c3ccc(Cl)cc3)c2c1=O
i,C=CCN(C(=O)c1cn(CC(C)C)c(=O)c2cc(OC)c(OC)cc12)c1ccccc1
22,CCCN(C(=O)c1cn(CC(C)C)c(=O)c2cc(OC)c(OC)cc12)c1cccc(Cl)c1
i,CCOC(=O)C1=C(C)NC2=C(C(=O)C(C(=O)OC)C(C)C2)C1c1ccccc1OCc1ccccc1 (stereo not given)
i,COc1cc2c(C(=O)O)cn(CC(C)C)c(=O)c2cc1OC
i,CC(=O)Oc1ccc2oc(=O)c3c(c2c1)CCCN3C(=O)CN1CCN(c2ccccc2)CC1
i,CCC(C)(C(=O)NC1CCCC1)N(Cc1ccco1)C(=O)CC1NC(=O)NC1=O (stereo not given)
26,CCCCOC(=O)C1=C(C)N(C)C(=O)NC1c1cc(Cl)c(O)c(OC)c1 (stereo not given)
i,OCCOCCn1c(-c2ccccc2)nc(=S)c2c1CCCC2
i,O=C(CSc1c2c(nc3ccccc13)CCCC2)NCc1ccc(F)cc1
i,O=C(CSc1nc2ccccc2c(=O)n1CC1CCC(C(=O)NCc2ccccc2)CC1)NCC1CCCO1 (stereo not given)
i,CCCCOc1cc(OCCCC)c2c3c(c(=O)oc2c1)CCCC3
18,CCc1ccc(C2C(C#N)=C(N)N(c3ncn[nH]3)C3=C2C(=O)CC(C)(C)C3)cc1 (stereo not given)
8,CC1(C)CC(=O)C2=C(C1)OC1=C(C(=O)CC(C)(C)C1)C2c1ccc(OC(=O)c2ccc(F)cc2)cc1
i,COc1ccc(C2C(=O)N(CCc3ccccc3)CC(=O)N2C2CCCc3ccccc32)cc1 (stereo not given)

(more compounds)
FPR binding,structure
i,O=C(CSc1nc(-c2ccccc2)nc2c1CCCC2)N1CCOCC1
26,C/C=C/COC(=O)C1=C(C)NC(=O)NC1c1cc(OC)ccc1OC (stereo not given)
i,Cc1sc2ncn(CC(=O)Nc3cccc(Cl)c3)c(=O)c2c1S(=O)(=O)N1CCC(C)CC1
22,CC1=C(C(=O)OC2CCCCCCC2)C(c2ccc(O)c([N+](=O)[O-])c2)NC(=O)N1 (stereo not given)
i,COC(=O)CCC1CCCCC12OCCO2 (stereo not given)
6,O=C(NC1(C(=O)Nc2ccc3c(c2)OCCO3)CCCC1)c1ccccn1
12,COC(=O)C1C(=O)C2=C(CC1C)NC(C)=C(C(=O)OCCOC(C)C)C2c1cccs1 (stereo not given)
i,COc1cc2c(C(=O)NCc3ccc(F)cc3)cn(CC(C)C)c(=O)c2cc1OC
24,CCCC1Nc2c(C(=O)O)ccc([N+](=O)[O-])c2C2C=CCC12 (stereo not given)
i,COc1ccccc1-c1c(C(F)(F)F)oc2cc(OCc3ccc(F)cc3)ccc2c1=O
i,CCC(C)(C(=O)NC1CCCC1)N(CC1CCCO1)C(=O)C1CCC(=O)N1 (stereo not given)
i,O=C(NCCc1ccccc1)C1CCC(Cn2c(SCc3cc(=O)n4ccccc4n3)nc3ccccc3c2=O)CC1 (stereo not given)
i,O=C(Nc1ccc(F)cc1)C1CCC(N2C(=O)C3C4C=CC(C4)C3C2=O)CC1 (stereo not given)
57,COc1cc(C(C2=C(O)CC(C)(C)CC2=O)C2C(=O)CC(C)(C)CC2=O)c([N+](=O)[O-])cc1OC (stereo not given)
i,COc1cccc(C(=O)N2N=C3CCCCC3C2(O)C(F)(F)F)c1 (stereo not given)
i,COc1ccc(C2OCC3(COC(C)=O)C(C)C=C(C)C2C3C)cc1 (stereo not given)
5,CCc1ccc(NC(=O)CSC2=C(C#N)C3(CCCCC3)C(C#N)C(=O)N2)cc1 (stereo not given)
i,CC(C)C(Nc1nc2ncn(Cc3ccccc3)c2c(=O)[nH]1)C(=O)O (stereo not given)
0,Cc1ccc(C)c(N2CCN(C(=O)c3cn(CC(C)C)c(=O)c4c3c3ccccc3n4C)CC2)c1
i,CCOC(=O)C1=C(C)NC2=C(C(=O)C(C(=O)OC)C(C)C2)C1c1c(F)cccc1Cl (stereo not given)

Carrying on:
FPR binding,structure
6,Cc1cc(NC(=O)CSc2nc3ccccc3c(=O)n2CC2CCC(C(=O)NCc3ccco3)CC2)no1 (stereo not given)
i,CCC(C)(C(=O)NC1CCCCC1)N(Cc1cccs1)C(=O)C1CCC(=O)N1 (stereo not given)
18,COc1ccc(-n2c3c(c(=O)[nH]c2=O)C(NC(=O)C(C)(C)C)(C(F)(F)F)C(=O)N3)cc1 (stereo not given)
i,CCOC(=O)c1cc2c(=O)n3ccccc3nc2n(CC(C)C)c1=NC(=O)c1cccnc1
i,CC1(C)CC2CC(C)(CN2c2ccc(N3C(=O)CCC3=O)cc2[N+](=O)[O-])C1 (stereo not given)
i,CC1=C(C(=O)OC2CCCCCC2)C(c2ccc3c(c2)OCO3)C2=C(CC(C)(C)CC2=O)N1 (stereo not given)
i,CCCCCCn1c(CN2CC(C)CC(C)C2)nc2c1c(=O)n(C)c(=O)n2C (stereo not given)
2,CCCOCCOC(=O)C1=C(C)NC2=C(C(=O)C(C(=O)OC)C(C)C2)C1c1cccc([N+](=O)[O-])c1 (stereo not given)
16,Cc1ccc(S(=O)(=O)NCC2CCC(C(=O)N(C)C3CCCCC3)CC2)cc1 (stereo not given)
i,CCCCCCc1cc2c3c(c(=O)oc2cc1OCC(=O)OC)CCC3
11,CCCc1cc(-c2n[nH]c(C)c2-c2ccc(C(=O)OCC)o2)c(O)cc1O
i,CC(=O)Oc1cccc(N2C(=O)C3C4CCC(C4)C3C2=O)c1 (stereo not given)
i,CCOCCCNC(=O)c1cn(CC(C)C)c(=O)c2cc(OC)c(OC)cc12
i,CCCCOC(=O)C1=C(C)NC(=O)NC1c1ccc(O)cc1 (stereo not given)
3,CC(C)(C)c1ccc(CCC(CC(=O)O)CC(=O)O)cc1
10,COCCOC(=O)C1=C(C)NC2=C(C(=O)C(C(=O)OC)C(C)C2)C1c1cccc([N+](=O)[O-])c1 (stereo not given)
21,O=C1CCC(C(=O)NC2(C(=O)NC3CCCCC3)CCCCC2)N1 (stereo not given)
i,N#Cc1c(NC(=O)C2CC(=O)OC23CCCCC3)sc2c1CCCCC2 (stereo not given)
i,COCCOC(=O)C1=C(C)NC2=C(C(=O)C(C(=O)OC)C(C)C2)C1c1ccc(C)cc1 (stereo not given)
i,CC(=O)OCC12COC(c3ccc4c(c3)OCO4)C(C(C)=CC1C)C2C (stereo not given)

More structures
FPR binding,structure
18,COC(=O)C1C(=O)C2=C(CC1C)NC(C)=C(C(=O)OCc1ccccc1)C2c1cccs1 (stereo not given)
i,CC(C)Cn1cc(C(=O)NCCCN2CCN(c3ccc(F)cc3)CC2)c2c3ccccc3n(C)c2c1=O
i,O=C(N1CCN2CCCC2C1)C12CC3CC(C1)CC(n1cncn1)(C3)C2 (stereo not given)
i,CC(=O)Nc1ccc(S(=O)(=O)NCC2CCC(C(=O)NCCc3ccc(C)cc3)CC2)cc1 (stereo not given)
i,CCOC(=O)C1=C(C)NC2=C(C(=O)C(C(=O)OC)C(C)C2)C1c1cc2c(cc1[N+](=O)[O-])OCO2 (stereo not given)
2,CC1(C)CC(=O)C2=C(C1)Nc1ncnn1C2c1ccc(Cl)cc1 (stereo not given)
11,CCSCCOC(=O)C1=C(C)NC2=C(C(=O)C(C(=O)OC)C(C)C2)C1c1cccs1 (stereo not given)
2,COc1ccc(C2(CNC(=O)c3ccc(OCC(C)C)cc3)CCCC2)cc1OC
i,COc1ccc(N(C)C(=O)c2cn(CC(C)C)c(=O)c3cc(OC)c(OC)cc23)c(OC)c1
i,CCOC(=O)c1cc2c(=O)n3ccccc3nc2n(CC(C)C)c1=NC(=O)c1c(F)cccc1Cl
20,CCOC(=O)NC1(C(F)(F)F)C(=O)Nc2c1c(=O)[nH]c(=O)n2-c1ccc(F)cc1 (stereo not given)
i,Cc1ccc(CNC(=O)CSc2nc3ccsc3c(=O)n2CC2CCC(C(=O)O)CC2)cc1 (stereo not given)
i,COCCNC(=O)CSc1c2c(nc3ccccc13)CCCC2
13,CCSCCOC(=O)C1=C(C)NC2=C(C(=O)C(C(=O)OC)C(C)C2)C1c1ccc(Br)cc1 (stereo not given)
8,O=C(O)COc1cc(OCC(=O)O)c2c3c(c(=O)oc2c1)CCC3
i,CCCC(O)(CCN(CC)CC)c1ccc(OC(C)C)cc1 (stereo not given)
i,COC(=O)C1C(=O)C2=C(CC1C)NC(C)=C(C(=O)OC1CCCCC1)C2c1ccc(Cl)cc1 (stereo not given)
i,O=C(O)c1ccc([N+](=O)[O-])c2c1NC(C(=O)O)C1CC=CC21 (stereo not given)
i,CCOC(=O)c1cc2c(=O)n3ccccc3nc2n(CC(C)C)c1=NC(=O)c1ccc([N+](=O)[O-])cc1
i,CCOC(=O)C(NC(=O)c1cccc(F)c1)(Nc1sc2c(c1C#N)CCCC2)C(F)(F)F (stereo not given)
13,CCCOC(=O)COc1cc2oc(=O)c3c(c2cc1Cl)CCC3
i,CC(=O)Nc1ccc(S(=O)(=O)NCC2CCC(C(=O)N3CCC(Cc4ccccc4)CC3)CC2)cc1 (stereo not given)
i,CCOC(=O)c1c(NC(=O)c2ccc(Cl)cc2)sc2c1CCCC2O (stereo not given)

5 entries picked at random from the list so far, as already listed:
FPR binding,structure
i,CCOC(=O)C(NC(=O)c1cccc(F)c1)(Nc1sc2c(c1C#N)CCCC2)C(F)(F)F (stereo not given)
i,COc1ccc(N(C)C(=O)c2cn(CC(C)C)c(=O)c3cc(OC)c(OC)cc23)c(OC)c1
13,CCCOC(=O)COc1cc2oc(=O)c3c(c2cc1Cl)CCC3
i,COCCNC(=O)CSc1c2c(nc3ccccc13)CCCC2
i,CCCC(O)(CCN(CC)CC)c1ccc(OC(C)C)cc1 (stereo not given)

Bioassay records from PubChem BioAssay.
